Assay outcomes (PubChem)
Rce1 inhib: yeast Ras-converting enzyme inhibition; Q03530; yeast membranes, quenched prenylated peptide cleavage fluorescence; calls only; 290,000 tested, 0.27% active; AID 2563;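 active = fall in fluorescence gain of 50% or more versus controls, with final raw signal at or below 3038400; inconclusive = same 50% fall but final raw signal above 3038400; inactive = fall in fluorescence gain under 50%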;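 note: plate controls were neutral control wells for no effect and wells lacking membranes for full effect; tested at 10 µM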
Target sequence (Q03530 whole entry, looked up): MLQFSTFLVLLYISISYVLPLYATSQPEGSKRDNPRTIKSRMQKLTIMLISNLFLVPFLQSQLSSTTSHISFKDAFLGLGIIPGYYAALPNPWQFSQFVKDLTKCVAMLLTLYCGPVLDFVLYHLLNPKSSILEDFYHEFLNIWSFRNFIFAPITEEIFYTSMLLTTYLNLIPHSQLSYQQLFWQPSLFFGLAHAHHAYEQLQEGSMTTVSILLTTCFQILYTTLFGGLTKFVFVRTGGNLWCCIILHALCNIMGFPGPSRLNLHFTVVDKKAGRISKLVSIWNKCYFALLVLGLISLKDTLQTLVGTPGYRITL
CSC inhib: cancer stem cell inhibition; cancer stem cell-like cells viability, luminescence; inhibition, % at 7.5 µM; 300,000 tested, 1.1% active;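 active = mean at 75% or more and at least half the replicates too; inconclusive = mean and replicates disagree; tested in HMLE shEcad cells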;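 note: 0% = median of negative and 100% = median of positive control wells; the first replicate is given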
eIF4H inh: inhibitors of RNA binding by human eIF4H. eIF4H fluorescence polarization binding assay. inhibition, % at 35 µM. 290,000 tested, 0.94% active. AID 2012;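 active = 50% or more with normal probe brightness, or confirmed in later tests; inconclusive = above 50% with abnormal brightness, or retests that disagree; inactive = below 50% or failed in later tests; about a fifth of its hits are not listed in these tables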;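 note: calls also rest on retests at 20 µM and on dose response follow-up; 0% = protein and probe with vehicle and 100% = probe without protein; strong numbers were not always called active; many hits fall short of the cut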
MT1-MMP act inh: MT1-MMP (human) activation inhibition; HT1080 RFP-PRO-GFP cells, GFP/RFP ratio fluorescence, overnight; percent of plate control window, DMSO zero; GFP/RFP ratio change, % at 20 µM; 360,000 tested, 0.061% active; AID 651647;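 active = GFP/RFP ratio change of at least 30% with cell ATP level not reduced by more than half and red fluorescence within 50% of control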; note: strong numbers were not always called active
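Material: RFP-PRO-GFP reporter HT1080 cells. Dosing: single-point 20 µM compound, 1% DMSO. Controls: DMSO and RFP-L50D-GFP cell wells. Timing: cells overnight before dosing, compound overnight, 37 °C, 5% CO2. Measure: GFP/RFP fluorescence ratio.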
HIV Env fusion: HIV envelope-mediated fusion inhibition. HeLa-JRFL Env/CEM21 cell fusion, luciferase. inhibition, % at 12.3 µM. 360,000 tested, 1.1% active;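 active = mean replicate inhibition score of at least 50 and every replicate individually at or above 50; inconclusive = only one of the two criteria met; inactive = mean below 50 and not all replicates reaching 50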;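 note: 0% = plate neutral controls and 100% = maraviroc near 300 nM; one replicate is shown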
PABP FP inh: blocks human PABP binding to poly(A) RNA | AID 2014 | P11940 | inhibition, % at 35 µM | fluorescence polarization | 290,000 tested, 1% active;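 active = 50% or more with normal probe brightness, or confirmed in later tests; inconclusive = above 50% with abnormal brightness, or retests that disagree; inactive = below 50% or failed in later tests; about a fifth of its hits are not listed in these tables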;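 note: calls also rest on retests at 20 µM and on dose response follow-up; controls were probe without protein and protein plus probe with vehicle; some compounds called inactive have numbers as strong as hits; many hits fall short of the cut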
Yeast UUG start: modulators of start codon recognition fidelity in yeast. S. cerevisiae UUG-firefly luciferase reporter, luminescence/redox ratio. activity score, % at 18.7 µM. 350,000 tested, 0.13% active;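 active = replicate mean at a twofold rise or more, about +100% in these data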;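 note: firefly luciferase made from a UUG start codon reports start codon fidelity; reporter light over untreated wells divided by growth signal over untreated wells; some hits fall short of that in this replicate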
eIF4H inh retest: also measured in eIF4H inh; calls as there; inhibition, %; compound at 20 µM; confirmation average;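 mean of two retest wells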
PABP FP inh retest: recorded beside PABP FP inh, whose call it bears; inhibition, %; compound at 20 µM; confirmation repeats;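 mean of two retest wells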
MT1-MMP act inh RFP: second read-out of MT1-MMP act inh, no call of its own (marks repeat the call); RFP signal change, %; measured here: RFP expression control read;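 0 = vehicle wells; hits needed this value within 50% of zero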
* marks the source's active call; other numbers are inactive results; i = inactive; u = inconclusive; x = no result given.

SMILES	Rce1 inhib	CSC inhib	eIF4H inh	MT1-MMP act inh	MT1-MMP act inh RFP	HIV Env fusion	PABP FP inh	Yeast UUG start	others
O=C1/C(=C/c2c[nH]c3ccccc23)CCC/C1=C\c1c[nH]c2ccccc12	i	-19	23	-111	0	19	-10	-16
COc1cccc(Oc2nc(-c3ccncc3)nc3ccccc23)c1	i	68	-7	-8	-8	12	-14	-16
CCSc1nnc(NC(=O)c2cccc3ccccc23)s1	i	-2	-1	-3	3	-5	16	-2
CNC(=O)c1nc(C)n(-c2ccc([N+](=O)[O-])cc2)n1	i	-28	10	-1	-2	3	-2	x
CCO[C@@H]1OC(C(=O)NCc2ccccc2)=C[C@H](c2ccc(C(F)(F)F)cc2)[C@H]1CCCO	i	4	-1	-13	-15	6	-4	-11
O=C(CSc1ccccn1)Nc1ccccc1F	i	-11	-7	12	1	-21	-3	x
CCOC(=O)C1CCN(C(=O)c2cc3c(OC)c(OC)c(OC)cc3[nH]2)CC1	i	-8	-3	5	8	5	5	-5
CCOC(=O)c1c(NC(=O)Cc2cccs2)sc(C(=O)NC2CCCCC2)c1C	i	19	1	-3	0	x	-10	-5
CCCCc1c(O)nc(SCC(=O)c2ccccc2)[nH]c1=O	i	3	-1	6	1	x	7	-2
CCCCNC(=O)C1CCC(=O)N1CCc1ccccc1 (centres undefined)	i	x	-13	2	4	-1	6	-4
CC(C)(C)c1cc[n+](C2=C([O-])c3ccccc3C(=O)/C2=N\S(=O)(=O)c2ccccc2)cc1	i	27	2	-13	1	-13	12	-1
Cc1ccccc1OCc1nc2ccccc2c(=O)n1/N=C/c1ccco1	i	-1	-3	8	5	x	-10	-9
Cc1cccc(-n2c(N)cc(=O)nc2SCC(=O)NC2CCCCC2)c1	i	-10	-2	-2	1	x	7	-9
CC(=O)Nc1ccc(NC(=S)NC(=O)/C=C/c2ccco2)cc1	i	-14	74*	-4	3	-1	32	-30	eIF4H inh retest=91*;PABP FP inh retest=38
O=C(NCCCN1CCCC1=O)c1ccc2c(c1)OCO2	i	1	4	3	4	x	6	x
O=C(N/N=C/c1ccccc1[N+](=O)[O-])c1ccc(COc2ccccc2-c2ccccc2)cc1	i	6	-4	-13	-13	-21	2	-13
CCOC(=O)c1[nH]c2ccc(F)cc2c1NC(=O)CCN1CCSCC1	x	x	-1	3	-3	x	-4	-15
COc1cc2c(cc1OC)C(COc1cccc(C(F)(F)F)c1)NCC2 (centres undefined)	i	13	-1	-3	2	-5	-3	-7
O=C(NCc1ccoc1)c1ccc(NC(=O)c2ccccc2Cl)cc1	i	x	-2	0	4	x	2	-3
COc1cccc(NC(=O)C(=S)NC2CCCCC2)c1	i	6	3	2	-6	-240	-13	-34
Nn1c(SCC(=O)NC(=O)Nc2ccc3c(c2)OCCO3)nnc1C1CC1	i	9	6	-1	0	-3	4	2
COC(=O)C(C)Sc1ccc2nnc(-c3ccc(F)cc3)n2n1 (centres undefined)	i	x	4	-8	-7	x	-3	x
O=C(COc1ccc(S(=O)(=O)N2CCCC2)cc1)NCc1ccco1	i	-2	5	0	6	x	-3	-12
CCOC(=O)c1cnn(-c2nc(-c3ccccc3F)cs2)c1C(F)(F)F	i	-5	2	-7	-5	-178	7	-24
O=C(CCN1C(=O)COc2ccccc21)N1CCN(c2ccccn2)CC1	i	-17	-4	4	0	x	0	6

Going on with the list:
SMILES	Rce1 inhib	CSC inhib	eIF4H inh	MT1-MMP act inh	MT1-MMP act inh RFP	HIV Env fusion	PABP FP inh	Yeast UUG start	others
O=C(NC1CCCCC1)C(Cc1ccccc1)N1C(=O)C2C3CCC(C3)C2C1=O (centres undefined)	x	-1	-10	6	4	x	-6	-13
CN(Cc1cccs1)C(=O)CSc1nc2ccccc2[nH]1	x	4	1	-3	-3	-31	11	x
Cc1nn(C)c(Cl)c1CN1CCC(n2nccc2NC(=O)C2CCCC2)CC1	i	-13	-6	1	1	28	-5	-15
O=C(Nc1ccc2c(c1)OCO2)C1CCCN1C(=O)OCc1ccccc1 (centres undefined)	i	22	-2	-1	-1	x	-3	-4
CCNS(=O)(=O)c1cc(OC)c(Cl)cc1OC	i	-15	1	1	2	-28	-1	x
Cn1cc(/C=C/C(=O)N2CCCC(C(=O)c3cccc(C(F)(F)F)c3)C2)cn1 (centres undefined)	i	10	1	6	1	0	-7	-18
O=C(NCc1ccco1)C1CCN(S(=O)(=O)c2cccc3cccnc23)CC1	i	-13	2	-6	0	2	-1	-20
O=C(CN(C(=O)CNC(=O)c1ccco1)c1ccccc1F)NC1CCCCC1	i	9	-19	3	6	-10	10	-3
Cc1ccc(NC(=O)c2ccc(S(=O)(=O)NCC3CCCO3)cc2)cc1C (centres undefined)	i	0	0	1	-2	-1	4	x
CCn1c(N2CCN(CC(=O)c3c(C)n(C)c4ccc(OC)cc34)CC2)nc2c1c(=O)[nH]c(=O)n2C	i	-7	-2	-1	-3	23	-5	3
COC(=O)N/N=C/c1ccccc1OCCOc1ccc(OC)cc1	i	12	6	5	-4	2	2	-16
CC(=O)N(/N=C1/C(=O)Nc2ccccc21)c1ccccc1	i	-6	22	-6	2	-24	19	-13
C=CCn1c(=O)c2ccc(C(=O)NCc3ccccc3)cc2n(Cc2ccc(C)cc2)c1=O	i	-5	0	0	3	10	10	-1
Nc1c(C(=O)O)cnc2c(-c3ccc(Cl)cc3)cnn12	i	-2	3	-14	-6	-87	-6	-22
Cc1ccc(N2CC(C(=O)N3CCC(c4nc5ccccc5[nH]4)CC3)CC2=O)cc1C (centres undefined)	i	-9	x	5	7	11	x	-13
COc1ccc2[nH]c(=O)c(CN(CCc3cccc(C)c3)C(C)=O)cc2c1	i	-6	-11	1	3	13	3	0
COC(=O)C1=C(CSc2nc3c(cc2C#N)CN(C)CC3)OC(N)=C(C#N)C1c1ccc(F)cc1 (centres undefined)	i	-3	u	-56	8	0	u	-4
COc1ccc(NC(=O)[C@@H]2[C@@H]3C(=O)N(C4CCCCC4)C(=O)[C@@H]3C3c4ccccc4C=CN32)cc1 (some centres undefined)	i	-12	-2	-4	7	x	7	11
O=[N+]([O-])c1ccc(N2CCOCC2)cc1	x	x	x	3	-1	-4	x	-18
Cc1cc2n(n1)C(c1c[nH]c3ccccc13)Nc1ccccc1-2 (centres undefined)	i	66	1	-33	-6	x	-1	-13
COCC(=O)N[C@@H]1c2ccccc2CC[C@@H]1OCc1ccccc1	x	x	x	2	2	8	x	4
COc1ccc2nc(/C=N/NC(=O)CCNC(=O)OC(C)(C)C)ccc2c1	i	-5	1	2	-4	-17	4	x
COc1ccc(CN2CCN(CCCCOc3ccc(Cl)cc3)CC2)c(OC)c1OC	i	11	-1	-1	-19	32	8	x
CC(C)(C)OC(=O)N(CCc1ccccc1)Cc1cccc(OCc2cccc(NC(=O)C3CCC3)c2)c1	x	x	x	-13	-22	-9	x	-16
O=C(CN1C(=O)c2ccccc2C1=O)N1CCOCC1	i	-4	-1	8	-2	x	-2	0

Other compounds follow:
SMILES	Rce1 inhib	CSC inhib	eIF4H inh	MT1-MMP act inh	MT1-MMP act inh RFP	HIV Env fusion	PABP FP inh	Yeast UUG start	others
CCc1c(C)c2ccc(O)c(CN3CCCC3)c2oc1=O	u	-5	1	x	x	2	-1	2
C=C(C)c1cccc(C(C)(C)NC(=O)N2CCCCC2CC)c1 (centres undefined)	i	-2	13	-5	-6	x	-7	-25
O=C(NC(=S)N1CCN(c2ccccc2)CC1)c1ccc(S(=O)(=O)N2CCOCC2)cc1	i	17	-13	3	0	0	3	-33
O=C(CCSc1ccccc1)N1CCN(c2ccccc2)CC1	i	-11	7	5	3	-31	-2	-9
CCCn1cnc2scc(-c3ccc(C)cc3)c2c1=O	x	3	-8	0	3	37	5	x
O=C(NC(C(=O)N/N=C/c1ccccc1)c1n[nH]c(=O)c2ccccc12)c1ccccc1 (centres undefined)	i	x	-1	5	5	x	1	-2
CC(C)(C)c1ccc(S(=O)(=O)N2CC(=O)Nc3ccccc32)cc1	x	-1	9	2	1	-80	-5	-14
COc1cccc(-c2nnn(CC(=O)Nc3ccc(C)cc3C)n2)c1OC	i	-5	-11	4	3	-5	-5	-4
COC(=O)c1sc(-c2ccc(Cl)cc2)cc1N	i	0	3	1	0	-42	4	-2
O=C(O)c1cccc(NC(=S)NC(=O)c2cccc(OCc3ccccc3)c2)c1	i	2	-9	5	2	-45	8	-10
O=C(NC1CCN(C(=O)NCc2ccccc2)CC1)c1ccco1	i	4	-8	2	1	-5	0	-5
CC(=O)Nc1ccc(S(=O)(=O)NCC2CCC(C(=O)NCCc3ccccc3)CC2)cc1 (centres undefined)	i	-4	-3	3	3	-5	-14	-17
COc1ccccc1CNCC(=O)NCc1ccc(C)cc1	i	-5	2	1	1	8	-10	x
CCC1CCCCN1c1nc(-c2ccncc2)nc2ccccc12 (centres undefined)	i	-2	-3	-4	-7	u	-6	x

This is a subset. The share of hits here may be higher or lower than overall.
